Screening results: PubChem BioAssay, several laboratories
Mtb betalactam: beta-lactam sensitization of Mtb H37Rv. M. tuberculosis H37Rv growth with meropenem, percent inhibition; hits of this screen are not shown here. inhibition, % at 25 µM. 0.27% of 330,000 active. AID 434955;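 active = about 74% or more and at least 40 points above the plate without the antibiotic, then above 30% in a dose series; inconclusive = first-round hits that could not be retested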;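 note: growth measured after seven days incubation then overnight dye step; 0% = bacteria only wells and 100% = bacteria with antibiotic; twin plates without the antibiotic show which effects depend on it; some results filed as inactive read as strong as hits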
YopH PTP inh: blocks Yersinia enterocolitica YopH tyrosine phosphatase; 0.16% of 140,000 active; fluorescence Ex485/Em525; inhibition, %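 (about 10 µM by stock and volumes)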;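 active = inhibition of 50% or more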;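 note: controls were vehicle for no effect and minimum signal wells for full effect; inactives centre near -20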
RecA splice inh: inhibitors of M. tuberculosis RecA intein splicing; P9WHJ3; cell-free RecA intein splicing, fluorescence; inhibition, %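 (about 9 µM by stock and volumes)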; 0.75% of 290,000 active; AID 2221; in the data active = inhibition above about 30%; inconclusive = no clear call, values can overlap the other calls;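 note: 0% = vehicle wells and 100% = reference inhibitor control wells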
Target sequence (P9WHJ3 whole entry, looked up, canonical isoform): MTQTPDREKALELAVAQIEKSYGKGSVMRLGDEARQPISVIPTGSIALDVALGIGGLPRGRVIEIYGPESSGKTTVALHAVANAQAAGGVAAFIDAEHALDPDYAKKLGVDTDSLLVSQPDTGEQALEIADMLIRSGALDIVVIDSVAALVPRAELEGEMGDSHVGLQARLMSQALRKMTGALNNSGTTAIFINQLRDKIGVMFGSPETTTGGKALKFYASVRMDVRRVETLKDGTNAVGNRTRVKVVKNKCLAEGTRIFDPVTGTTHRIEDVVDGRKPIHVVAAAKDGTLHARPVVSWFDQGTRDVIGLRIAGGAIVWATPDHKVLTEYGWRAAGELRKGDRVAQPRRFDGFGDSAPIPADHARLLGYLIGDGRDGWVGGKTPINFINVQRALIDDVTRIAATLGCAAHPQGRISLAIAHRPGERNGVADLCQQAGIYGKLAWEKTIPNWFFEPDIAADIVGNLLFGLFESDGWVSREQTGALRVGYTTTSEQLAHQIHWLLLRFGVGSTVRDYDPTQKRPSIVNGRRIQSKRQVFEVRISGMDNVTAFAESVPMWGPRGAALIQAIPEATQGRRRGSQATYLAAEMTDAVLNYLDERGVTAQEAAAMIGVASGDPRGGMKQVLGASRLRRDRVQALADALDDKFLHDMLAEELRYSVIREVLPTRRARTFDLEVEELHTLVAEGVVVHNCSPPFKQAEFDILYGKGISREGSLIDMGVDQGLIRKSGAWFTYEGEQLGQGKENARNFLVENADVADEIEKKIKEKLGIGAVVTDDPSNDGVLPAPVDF
Mtb growth: M. tuberculosis H37Rv growth inhibitors, H37Rv strain (AID 1626). M. tuberculosis H37Rv growth inhibition; higher % means a stronger effect. 0.95% of 220,000 active. one-dose inhibition, % at 10 µM; IC50 in µM for titrated hits;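 active = confirmed in a dose series; inconclusive = inhibition above 80% but not taken into the dose series; inactive = below 80% or under 30% at every dose of the series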;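 note: bacteria incubated seven days before Alamar blue readout; 0% = bacteria only wells and 100% = bacteria with antibiotic wells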
Arbovirus inh: antivirals against arbovirus infection. 0.37% of 200,000 active. inhibition, % at 10 µM. AID 1251. arbovirus infection cell-based antiviral screen;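 active = inhibition from about 30%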;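 note: bluetongue infection of BSR cells; cell survival read as ATP light after 72 h; 0% = infected wells without compound and 100% = uninfected wells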
Arbovirus inh repeat: also measured in Arbovirus inh; calls as there; inhibition, %; measured here: 10K subset replicate screen; many hits read low in the repeat;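 first of two repeat runs on a subset; 0% = infected and 100% = uninfected wells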
* marks the source's active call; other numbers are inactive results; ? = inconclusive; · = no result given. These rows are one share of the data; the hit share may differ from the screen's.

SMILES	Mtb betalactam	YopH PTP inh	RecA splice inh	Mtb growth	Arbovirus inh	others
COCCNC(=O)C(c1ccco1)N(C(=O)Cn1nnc2ccccc21)c1cccc(C)c1C (stereo not given)	-14	0	1.2	-7%	7
CC(=O)Nc1ccc(/C=C/c2nc(-c3ccccc3O)n[nH]2)cc1	-8	·	0.8	·	·
COc1ccc2c(Cl)c(C(N)=O)sc2c1	-6	-44	-0.5	6%	-1
COc1ccccc1NC(=O)CCNS(=O)(=O)c1ccc2c(c1)CC(C)N2C(=O)C1CC1 (stereo not given)	7	·	-1.0	·	·
CCO[C@@H]1OC(C(=O)N2CCN(Cc3ccc4c(c3)OCO4)CC2)=C[C@H](C)[C@H]1CCCO	-7	·	-4.2	-7%	-4
CCSc1nc2sc3c(c2c(=O)n1CC)CC(C)(C)OC3	3	-37	5.4	1%	9
O=C(COc1ccccc1-c1ccccc1)NCc1cccc(Cl)c1	68	-9	2.6	16%	-17
Cc1onc(-c2ccccc2)c1C(=O)Nc1ccccc1N1CCOCC1	4	-38	2.1	-2%	-4
Cc1cccc(OCC(=O)Nc2ccc(C(=O)c3ccc(C(=O)O)cc3)cc2)c1	6	·	2.7	-6%	-3
Cc1oc(C(=O)O)cc1COc1ccc2c3c(c(=O)oc2c1)CCC3	0	9	-1.6	-9%	9
CC1CCCCN1CCCNC(=O)C1CCN(c2nnc(-n3cccc3)s2)CC1 (stereo not given)	7	·	-0.6	·	·
O=C(C1COc2ccccc2O1)N1CCN(c2ccccn2)CC1 (stereo not given)	-8	·	1.0	·	·
Nc1nnc2c(C(F)(F)F)nc3ccccc3n12	-2	·	-25	·	·
O=S(=O)(Nc1ccc2c(c1)OCCO2)c1ccc(F)cc1	1	-2	0.0	3%	16
CCOc1ccc(Br)cc1S(=O)(=O)Nc1nc(CN2CCOCC2)nc2sc(C)c(C)c12	-9	-90	-4.8	6%	-9
COc1ccccc1OC(C)C(=O)NNC(=S)NC1CCCC1 (stereo not given)	-2	·	-2.1	-1%	3
O=C(CSc1ccccn1)N/N=C/c1cccc([N+](=O)[O-])c1	-4	-31	0.5	-4%	2
COc1ccc(NC(=O)COC(=O)c2cc(SC)ccc2Cl)c(OC)c1	9	-4	-0.3	10%	5
Cc1cc(C)n2nc(/C(C#N)=C/c3ccccn3)c(C#N)c2n1	83	·	·	?	-6
CCCCSCCCNC(=O)Nc1ccc(CC)cc1	-8	·	3.7	-9%	1
Cc1ccc2[nH]c3c(c2c1)CN(C(=O)CN1c2ccc(F)cc2CCC1C)CC3 (stereo not given)	10	-9	1.6	7%	-23
CN(c1ccc(C(=O)N2CCN(Cc3ccccc3)CC2)cc1)S(=O)(=O)c1ccccc1	4	·	-0.7	·	·
O=C(COC(=O)c1ccccn1)Nc1cccc(Cl)c1	1	-40	0.4	-10%	-1
Cc1nn(-c2ccccc2)c(Cl)c1/C=C1\SC(=S)N(CCCCCC(=O)O)C1=O	-4	·	37*	-3%	·
CCS(=O)(=O)c1ccc2c(c1)NC(=O)C(CCO)O2 (stereo not given)	1	·	-2.5	-3%	3
Cc1cc(-n2c(C)cc(C(=O)CSc3nnnn3-c3ccc(Cl)cc3)c2C)no1	-2	-13	-0.6	5%	4
CCOC(=O)C1CCN(C/C=C/c2ccccc2[N+](=O)[O-])CC1	2	·	0.1	·	·
Nc1ccc(O)cc1	3	·	81*	-4%	·
Cc1ccc(NC(=O)C2CC(=O)n3ncnc3N2)cc1 (stereo not given)	-5	-31	6.7	1%	1
CCCS(=O)(=O)c1nc(S(=O)(=O)c2ccc(C)cc2)c(NCCCN(C)C)s1	2	·	·	-9%	1

The final 7 compounds of the part before open the next one.
SMILES	Mtb betalactam	YopH PTP inh	RecA splice inh	Mtb growth	Arbovirus inh	others
Cc1nn(-c2ccccc2)c(Cl)c1/C=C1\SC(=S)N(CCCCCC(=O)O)C1=O	-4	·	37*	-3%	·
CCS(=O)(=O)c1ccc2c(c1)NC(=O)C(CCO)O2 (stereo not given)	1	·	-2.5	-3%	3
Cc1cc(-n2c(C)cc(C(=O)CSc3nnnn3-c3ccc(Cl)cc3)c2C)no1	-2	-13	-0.6	5%	4
CCOC(=O)C1CCN(C/C=C/c2ccccc2[N+](=O)[O-])CC1	2	·	0.1	·	·
Nc1ccc(O)cc1	3	·	81*	-4%	·
Cc1ccc(NC(=O)C2CC(=O)n3ncnc3N2)cc1 (stereo not given)	-5	-31	6.7	1%	1
CCCS(=O)(=O)c1nc(S(=O)(=O)c2ccc(C)cc2)c(NCCCN(C)C)s1	2	·	·	-9%	1
COc1ccc2oc(C)c(C(=O)c3ccccc3)c2c1	-4	·	9.5	·	·
COc1cc(/C=N/N=C2/NC(=O)C(CC(=O)O)S2)ccc1OCc1ccc(Cl)cc1 (stereo not given)	46	-15	-1.2	6%	-4
COC(=O)C1CCN(C(=O)c2c(-c3ccccc3Cl)noc2C)CC1	-11	-9	-1.9	-11%	4
COC(=O)c1ccccc1NC(=O)CN1CCOCC1	-5	0	-0.2	-9%	-1
Cc1ccccc1N1C(=O)CC(Sc2nnc(-c3ccccc3)o2)C1=O (stereo not given)	36	-29	9.2	-3%	1
COc1ccc(OC)c(-c2c3cc(O)c(=O)cc-3oc3cc(O)c(O)cc23)c1	24	55*	·	9%	-25
CCN(N=Nc1nonc1OC)c1nonc1OC	0	30	-1.4	-9%	-7
O=C1CN(C(=O)COC(=O)/C=C/c2ccco2)c2ccccc2N1	-10	·	-4.5	0%	1
COc1ccc(C(C(=O)NC2CCCC2)N(CC2CCCO2)C(=O)Cn2nnc(-c3ccc(C)o3)n2)cc1 (stereo not given)	3	·	-3.2	5%	1
COc1ccc(N(C(=O)c2ccco2)C(C(=O)NC2CCCC2)c2cccnc2)c(OC)c1 (stereo not given)	-8	·	1.0	·	·
Cc1ccccc1C(=O)NNC(=O)CSc1nc(-c2ccccc2)cc(=O)[nH]1	-7	·	2.9	-4%	5
COc1cc([N+](=O)[O-])cc(/C=N/NC(=O)CC#N)c1O	·	·	4.1	-6%	20
O=C(O)CSCC(=O)c1ccccc1	2	-38	-0.5	0%	9	Arbovirus inh repeat=1
COc1cc(C2NCCc3c2[nH]c2ccccc32)ccc1OC(C)C (stereo not given)	6	·	1.0	1%	-8
CCSc1nnc(NC(=O)CSc2nc3c(c(=O)n2-c2ccccc2OC)SCC3)s1	-12	-25	-1.1	-8%	7
Cc1cc(/C=C(\C#N)C(=O)O)c(C)n1C1CC1	-3	-7	-5.2	8%	6
OC(COc1ccc2ccccc2c1)CN1CCN(c2ccc(F)cc2)CC1 (stereo not given)	3	-16	0.4	-4%	-6	Arbovirus inh repeat=-7
COc1ccc(C(O)P(=O)(OCC(C)C)OCC(C)C)c(OC)c1 (stereo not given)	-3	0	-1.0	5%	9
CCOC(=O)c1ccoc1CSCc1ccc(C(=O)OC)o1	-9	-49	0.1	10%	7
CS(=O)(=O)N1CCN(c2ccc(NC(=S)NC(=O)c3cccs3)cc2)CC1	-5	·	-3.0	2%	1

Reprinted at random: two compounds from above, in no set order.
SMILES	Mtb betalactam	YopH PTP inh	RecA splice inh	Mtb growth	Arbovirus inh	others
Cc1cc(/C=C(\C#N)C(=O)O)c(C)n1C1CC1	-3	-7	-5.2	8%	6
O=C(O)CSCC(=O)c1ccccc1	2	-38	-0.5	0%	9	Arbovirus inh repeat=1

Following part
SMILES	Mtb betalactam	YopH PTP inh	RecA splice inh	Mtb growth	Arbovirus inh	others
O=c1[nH]c(NCc2ccccc2)nc2c1CCCC2	-7	-14	-1.5	13%	14
Cc1n[nH]c(C)c1CCCCOc1ccccc1F	49	·	2.2	·	·
CCc1cccc(NC(=S)Nc2ccc(CN3CCOCC3)cc2)c1	-7	·	0.5	-2%	-3
NS(=O)(=O)c1cc2c(cc1Cl)NC=NS2(=O)=O	-1	-26	-3.1	-7%	9
O=C(Nc1ccc([N+](=O)[O-])cc1)Nc1ccc2c(c1)OCCO2	-4	·	0.6	0%	5
CCN(c1cccc(C)c1)S(=O)(=O)c1ccc2c3c(cccc13)C(=O)N2	-8	-6	-38	7%	-10
O=[N+]([O-])c1ccccc1CN1CCN(S(=O)(=O)Cc2ccccc2)CC1	3	·	0.1	·	·
O=C(CN(c1ccc2c(c1)OCCO2)S(=O)(=O)c1ccccc1)N1CCN(Cc2ccccc2)CC1	2	·	0.9	6%	-11
COc1cc(Cl)c(S(=O)(=O)N2CCCC2)cc1Cl	-1	·	-2.4	-9%	-5
O=C(Nc1ccc2c(c1)OCO2)c1c(F)c(F)c(F)c(F)c1F	-3	-5	-2.8	3%	3
CCC(=O)NCCc1nc2cc(NC(=O)c3cccs3)ccc2n1C	-7	·	3.5	4%	0
Cc1nn(C(C)C)c(C)c1CN1CCCC(CCC(=O)NCc2ccccc2F)C1 (stereo not given)	-1	·	0.3	5%	4
O=C(CCl)Nc1nc(-c2ccco2)c(-c2ccco2)s1	10	-7	-7.3	3%	-5
CCCc1cc(=O)[nH]c(SCc2ccccc2Cl)n1	-3	6	·	-3%	17
COc1ccc(N2C(=O)C(Cl)=C(Nc3c(C)n(C)n(-c4ccccc4)c3=O)C2=O)cc1	3	-25	-2.5	3%	4
Cc1cc(C)cc(NC(=O)CCNC(=O)c2ccc([N+](=O)[O-])cc2)c1	32	·	0.9	·	·
O=C(Nc1ccc(F)cc1F)c1csc(-c2ccccc2)n1	-4	·	5.6	8%	5
COc1cccc(/C=N/n2c(=O)[nH]c3ccccc32)c1OC	0	-13	-1.3	5%	-2
COc1ccc(NC(=O)CSCc2ccc([N+](=O)[O-])cc2)cc1OC	1	·	0.4	·	·
CC(=O)Nc1ccc(-c2csc(Nc3cccc(C)n3)n2)cc1	·	·	7.4	3%	-9

Of the compounds above, 8 contain fluorine:
SMILES	Mtb betalactam	YopH PTP inh	RecA splice inh	Mtb growth	Arbovirus inh	others
Nc1nnc2c(C(F)(F)F)nc3ccccc3n12	-2	·	-25	·	·
O=S(=O)(Nc1ccc2c(c1)OCCO2)c1ccc(F)cc1	1	-2	0.0	3%	16
Cc1ccc2[nH]c3c(c2c1)CN(C(=O)CN1c2ccc(F)cc2CCC1C)CC3 (stereo not given)	10	-9	1.6	7%	-23
OC(COc1ccc2ccccc2c1)CN1CCN(c2ccc(F)cc2)CC1 (stereo not given)	3	-16	0.4	-4%	-6	Arbovirus inh repeat=-7
Cc1n[nH]c(C)c1CCCCOc1ccccc1F	49	·	2.2	·	·
O=C(Nc1ccc2c(c1)OCO2)c1c(F)c(F)c(F)c(F)c1F	-3	-5	-2.8	3%	3
Cc1nn(C(C)C)c(C)c1CN1CCCC(CCC(=O)NCc2ccccc2F)C1 (stereo not given)	-1	·	0.3	5%	4
O=C(Nc1ccc(F)cc1F)c1csc(-c2ccccc2)n1	-4	·	5.6	8%	5

Further compounds
SMILES	Mtb betalactam	YopH PTP inh	RecA splice inh	Mtb growth	Arbovirus inh	others
OC(CNCc1ccc2c(c1)OCO2)COc1ccc(F)cc1 (stereo not given)	-5	·	3.0	4%	·
Cc1cc(C)nc(SCC(=O)NNC(=O)c2ccccc2C)n1	-7	·	-1.7	9%	2
O=C(NC(=S)Nc1ccc(O)cc1)c1ccccc1Cl	1	·	-8.8	4%	-21
O=C(O)c1ccc(CSc2nc(-c3ccccc3)cc(C(F)(F)F)n2)cc1	9	-20	3.0	3%	-4
O=C(Nc1ccccc1)c1ccccc1OCc1ccc(F)cc1	2	·	0.7	·	·
CCC(C)[C@H](NC(=O)[C@@H]1CSC2c3ccccc3C(=O)N21)C(=O)N1CCCCC1 (stereo not given in full)	0	·	-0.9	·	·
